# Source: PubChem (Broad Institute)
# BJeLR viab HTS: BJeLR cell viability reduction; viability loss activity score, % (concentration not given with the values); 30,000 tested, 0.64% active; BJeLR fibroblasts viability, CellTiterGlo ATP luminescence, 48 h; HRASV12, hTERT and SV40 LT/ST transformed; in the data active = viability loss activity score above about 50%; about a fifth of its hits are not listed in these tables;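 also: higher score means fewer live cells and less ATP luminescence; stock transfer was 50 or 100 nL into about 30 µL; 0% = vehicle wells and 100% = a reference killing control; one replicate is shown; the record names a cut of 85%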
# A1 inhib: inhibitors of A1 | MEF A1-2A-BIM cells, caspase-Glo luminescence, 3 h; percent of clofoctol signal, DMSO as zero | caspase activation, % (test concentration not listed) | 21,000 tested, 0.51% active;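 active = most replicate scores above 10, or exactly half above 10 with mean activity above 10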;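 also: effector caspase 3 and 7 activity cleaving a DEVD luciferin substrate; 50 nL library stock added to about 30 µL; numbers are from one replicate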
# Numbers without * were called inactive; . = no result given. An excerpt; the hit share may differ from the screen's.
SMILES,BJeLR viab HTS,A1 inhib
CC(C)NC(=O)Nc1ccc2c(c1)C(=O)N([C@H](C)CO)C[C@@H](C)[C@@H](CN(C)S(C)(=O)=O)O2,0.3,-0.1
CC(C)NC(=O)N(C)C[C@H]1Oc2c(NS(=O)(=O)c3ccccc3)cccc2C(=O)N([C@@H](C)CO)C[C@@H]1C,2.4,.
Cn1cnc(S(=O)(=O)N(Cc2ccccc2)Cc2ccccc2N2CCC(C(=O)O)CC2)c1,-0.1,0.1
C[C@@H]1CN([C@H](C)CO)C(=O)c2cccc(NC(=O)C3CCCCC3)c2O[C@@H]1CN(C)S(=O)(=O)c1ccccc1,3.8,.
COc1ccc(C(=O)Nc2ccc(C(O)(C(F)(F)F)C(F)(F)F)cc2)cc1,0.9,-0.1
Cc1onc(-c2c(Cl)cccc2Cl)c1C(=O)N(C)C,2.2,0.2
Cc1ccc(S(=O)(=O)N(C)C[C@H]2Oc3ccc(NC(=O)Nc4ccccc4)cc3C(=O)N([C@@H](C)CO)C[C@@H]2C)cc1,6.3,-1.1
COc1ccc(CN(C)C[C@H]2Oc3ccc(NS(=O)(=O)c4c(C)noc4C)cc3C(=O)N([C@@H](C)CO)C[C@@H]2C)cc1,-7.3,1.0
CC(=O)O[C@]1(C(C)=O)CC[C@H]2[C@@H]3C=C(C)C4=CC(=O)CC[C@@H]4[C@H]3CC[C@@]21C,-3.4,-0.2
CCOC(=O)c1c(S(=O)(=O)NCc2ccccc2)c(-c2ccccc2)n(-c2ccccc2)c1C,3.9,-0.4
C[C@@H]1CN([C@@H](C)CO)C(=O)c2cccc(NS(=O)(=O)c3cn(C)cn3)c2O[C@@H]1CN(C)S(C)(=O)=O,-6.6,.
O=S(=O)(NC12CC3CC(CC(C3)C1)C2)c1cccc(C(F)(F)F)c1,-0.3,0.1
O=C(CN1C(=O)CSC1=O)N1CCCC1,1.3,.
COc1ccc(S(=O)(=O)Nc2ccc3c(c2)C(=O)N([C@@H](C)CO)C[C@H](C)[C@H](CN(C)C(=O)Nc2ccccc2)O3)cc1,1.3,0.7
COCc1cc(C)nc2sc(C(N)=O)c(N)c12,6.3,0.0
O=C(CC(CC(=O)c1ccccc1)c1cccc2ccccc12)c1ccccc1,-1.5,-0.1
CCN(/C=C1\SC(=S)N(c2ccc(OC)cc2)C1=O)CC,-2.3,-0.7
Cc1noc(C)c1NC(=O)Nc1ccc2c(c1)C(=O)N([C@H](C)CO)C[C@H](C)[C@@H](CN(C)Cc1ccc3c(c1)OCO3)O2,2.3,0.8
Oc1ccc(Cn2nc(-c3ccc(O)cc3)c3ccccc32)cc1,3.1,0.2
C[C@H](CO)N1C[C@H](C)[C@@H](CN(C)C(=O)Nc2cccc3ccccc23)Oc2c(NC(=O)c3nc4ccccc4s3)cccc2C1=O,-5.8,.
CCC(=O)Nc1ccc2nc(SCc3ccc(F)c4ccccc34)sc2c1,-1.9,-1.6
CCC(C)NC(=O)C1CCC(=O)N(c2cc(OC)c(OC)c(OC)c2)C1c1ccc(OC)cc1 (centres undefined),1.4,.
Cc1cc(C(F)(F)F)nc(SCC(=O)NCc2cccc(C(F)(F)F)c2)n1,-7.1,1.0
Cc1noc(C)c1NC(=O)N(C)C[C@H]1Oc2ccc(NC(=O)CCCCCC(=O)Nc3ccccc3N)cc2C(=O)N([C@@H](C)CO)C[C@@H]1C,-4.7,.
C[C@H]1CN([C@@H](C)CO)C(=O)c2cc(NC(=O)Nc3ccccc3)ccc2O[C@@H]1CN(C)Cc1ccccc1,-4.4,0.3
Cc1noc(C)c1NC(=O)N(C)C[C@H]1Oc2c(NC(=O)c3ccncc3)cccc2C(=O)N([C@@H](C)CO)C[C@H]1C,-6.0,.
O=C(c1nc2ccccc2[nH]1)N1CCOCC1,-1.6,0.3
C(=Nc1ccc2ccccc2c1)Nc1ccc2ccccc2c1,7.2,1.3
Cc1ccc(-c2csc(=Nc3ccccc3)n2CCCN(C)C)cc1,16,.
COC(=O)c1c(-c2c(Cl)cccc2Cl)noc1NC(=O)N(C)C,-3.1,0.7
Cc1ccc(-c2n[nH]c(=S)c3ccccc23)cc1S(=O)(=O)NCc1cccnc1,6.5,.
COC1OC(C)C(OCc2ccccc2)C(O)C1O (centres undefined),2.6,0.0
Cc1cccc(C(=O)N(CC#N)CC#N)c1,4.3,-1.2
C[C@@H]1CN([C@H](C)CO)C(=O)c2cc(NC(=O)Nc3ccc(F)cc3)ccc2O[C@H]1CN(C)C(=O)Nc1ccc(F)cc1,-7.3,0.1
Cn1cc(C2=C(c3cn(CCCSC(=N)N)c4ccccc34)C(=O)NC2=O)c2ccccc21,56*,4.1
CCOC(=O)c1sc(SC#N)c(-c2ccccc2)c1N,-6.3,2.1
Clc1ccc(C(Cn2ccnc2)OCc2c(Cl)cccc2Cl)c(Cl)c1 (centres undefined),0.8,0.5
C[C@H]1CN([C@@H](C)CO)C(=O)c2cccc(NC(=O)C3CC3)c2O[C@@H]1CN(C)S(=O)(=O)c1ccccc1,1.2,.
C[C@@H]1CN([C@H](C)CO)C(=O)c2cc(NC(=O)Nc3ccc(F)cc3)ccc2O[C@H]1CN(C)S(=O)(=O)c1cccs1,-2.9,1.2
COc1ccc(S(=O)(=O)Nc2cccc3c2O[C@@H](CN(C)Cc2ccc(C(F)(F)F)cc2)[C@H](C)CN([C@@H](C)CO)C3=O)cc1,-4.8,.
Cc1ccc(S(=O)(=O)N(C)C[C@@H]2Oc3ccc(NC(=O)NC(C)C)cc3C(=O)N([C@@H](C)CO)C[C@@H]2C)cc1,0.0,0.0
CC(C)c1ccc(NC(=O)CSc2n[nH]c(=O)n2C(C)c2ccccc2)cc1 (centres undefined),2.6,-0.3
O=C(Nc1ccc(C(F)(F)F)cc1)c1ccc2c(c1)CCO2,7.0,0.7
C[C@H](CO)N1C[C@H](C)[C@@H](CN(C)Cc2ccccc2)Oc2ccc(NC(=O)CCCCCC(=O)Nc3ccccc3N)cc2C1=O,-5.4,.
C[C@H]1CN([C@@H](C)CO)C(=O)c2cc(NS(=O)(=O)c3cn(C)cn3)ccc2O[C@H]1CN(C)C(=O)Nc1ccc(C(F)(F)F)cc1,-0.7,1.1
O=C(Nc1ccc(F)cc1)C1c2ccccc2Oc2ccccc21,2.2,-0.1
CSc1c(C#N)c(-c2ccccc2)nn1CC(=O)NN,-0.5,0.0
COc1ccc(NC(=O)N(C)C[C@@H]2Oc3ccc(NC(=O)NC(C)C)cc3C(=O)N([C@@H](C)CO)C[C@H]2C)cc1,0.3,0.4
CNC[C@@H]1Oc2ccc(NC(=O)CCC(F)(F)F)cc2C(=O)N([C@@H](C)CO)C[C@H]1C,-1.5,1.0
O=C(NCc1ccc2c(c1)OCO2)c1ccc(Cl)cc1,2.1,-0.3
CC(C)(C)C1CC=C2[C@H](C1)[C@@H](c1ccsc1)C(C#N)=C(N)C2(C#N)C#N (some centres undefined),4.4,-1.4
Cc1noc(C)c1NC(=O)N(C)C[C@@H]1Oc2c(NS(=O)(=O)c3ccc(F)cc3)cccc2C(=O)N([C@@H](C)CO)C[C@H]1C,-0.5,.
C[C@@H]1CN([C@@H](C)CO)C(=O)c2cc(NC(=O)Nc3ccc4c(c3)OCO4)ccc2O[C@@H]1CN(C)CC1CCCCC1,0.3,0.4
COc1ccc(S(=O)(=O)Nc2cccc3c2O[C@H](CN(C)S(=O)(=O)c2ccccc2)[C@H](C)CN([C@H](C)CO)C3=O)cc1,3.1,.
CCOC(=O)Cn1nc(C(F)(F)F)c(Br)c1C1CC1,-2.8,.
Cc1ccc(S(=O)(=O)N(C)C[C@H]2Oc3ccc(NC(=O)CCC(F)(F)F)cc3C(=O)N([C@@H](C)CO)C[C@H]2C)cc1,-3.8,1.0
CCCCc1cc(=O)oc2cc(OCC(=O)c3ccc(F)cc3)ccc12,-6.0,6.0
C[C@H](CO)N1C[C@H](C)[C@@H](CN(C)C(=O)Nc2ccc3c(c2)OCO3)Oc2ccc(NC(=O)Nc3ccc4c(c3)OCO4)cc2C1=O,-4.4,-0.2
C[C@H]1CN([C@@H](C)CO)C(=O)c2cc(NC(=O)Nc3cccc4ccccc34)ccc2O[C@H]1CN(C)S(=O)(=O)c1cn(C)cn1,1.5,0.2
C[C@H]1CN([C@@H](C)CO)C(=O)c2cc(NC(=O)Cc3ccccc3)ccc2O[C@@H]1CN(C)CC1CCCCC1,2.2,0.3
# Following part.
SMILES,BJeLR viab HTS,A1 inhib
C[C@@H]1CN([C@H](C)CO)C(=O)c2cccc(NC(=O)c3cnccn3)c2O[C@@H]1CN(C)CC1CCCCC1,1.4,.
FC(F)(F)c1cccc(-n2c(-c3ccncc3)n[nH]c2=S)c1,-1.3,1.0
O=C(NCCc1ccccc1)c1cccc(N2CCCC2=O)c1,-0.9,.
N#CC1(NC(=O)c2cc3ccccc3oc2=O)CCCCC1,-2.1,-0.3
CC(C)[C@@H]1CC[C@@]2(C)CCC[C@@](C)(O)[C@@H]2[C@H]1OC(=O)/C=C/c1ccccc1,23,-1.0
COC1=CC(=O)CC(C)C12Oc1cc(OC)cc(OC)c1C2=O (centres undefined),-2.7,0.2
O=c1sc(N2CCN(C3CCCCC3)CC2)nc2ccsc12,-0.1,.
Cc1ccc(S(=O)(=O)Nc2ccc3c(c2)C(=O)N([C@H](C)CO)C[C@@H](C)[C@@H](CN(C)S(C)(=O)=O)O3)cc1,-1.2,-0.4
N#C/C(=C\Nc1cc(C(F)(F)F)cc(C(F)(F)F)c1)S(=O)(=O)c1ccccn1,-1.2,-0.7
COc1ccc(NC(=O)N(C)C[C@@H]2Oc3ccc(NS(=O)(=O)c4cccs4)cc3C(=O)N([C@@H](C)CO)C[C@@H]2C)cc1,-7.4,1.3
CCC(C)NC(=O)CSc1cc(=O)n(C)c2ccc(Cl)cc12 (centres undefined),1.0,.
C[C@@H]1CN([C@H](C)CO)C(=O)c2cccc(NC(=O)c3cnccn3)c2O[C@@H]1CN(C)Cc1ccc(-c2ccccc2)cc1,-2.6,.
C[C@@H]1CN([C@@H](C)CO)C(=O)c2cccc(NC(=O)Nc3ccc(C(F)(F)F)cc3)c2O[C@H]1CN(C)Cc1ccncc1,4.3,.
CC1(C)C(=O)[C@@H]2O[C@@H]2[C@@]2(C)C1CC(=O)[C@]1(C)C2CC[C@@]2(C)[C@H](c3ccoc3)OC(=O)[C@H]3O[C@]321 (some centres undefined),4.5,-0.3
Cc1ccc(CSc2nc3ccccc3c3nc(CCc4c(C)n[nH]c4C)nn23)cc1,-0.7,-0.3

# A stretch from further up:
SMILES,BJeLR viab HTS,A1 inhib
C[C@@H]1CN([C@H](C)CO)C(=O)c2cccc(NC(=O)c3cnccn3)c2O[C@@H]1CN(C)CC1CCCCC1,1.4,.
FC(F)(F)c1cccc(-n2c(-c3ccncc3)n[nH]c2=S)c1,-1.3,1.0
O=C(NCCc1ccccc1)c1cccc(N2CCCC2=O)c1,-0.9,.
N#CC1(NC(=O)c2cc3ccccc3oc2=O)CCCCC1,-2.1,-0.3
CC(C)[C@@H]1CC[C@@]2(C)CCC[C@@](C)(O)[C@@H]2[C@H]1OC(=O)/C=C/c1ccccc1,23,-1.0
COC1=CC(=O)CC(C)C12Oc1cc(OC)cc(OC)c1C2=O (centres undefined),-2.7,0.2
O=c1sc(N2CCN(C3CCCCC3)CC2)nc2ccsc12,-0.1,.
Cc1ccc(S(=O)(=O)Nc2ccc3c(c2)C(=O)N([C@H](C)CO)C[C@@H](C)[C@@H](CN(C)S(C)(=O)=O)O3)cc1,-1.2,-0.4
N#C/C(=C\Nc1cc(C(F)(F)F)cc(C(F)(F)F)c1)S(=O)(=O)c1ccccn1,-1.2,-0.7
COc1ccc(NC(=O)N(C)C[C@@H]2Oc3ccc(NS(=O)(=O)c4cccs4)cc3C(=O)N([C@@H](C)CO)C[C@@H]2C)cc1,-7.4,1.3
CCC(C)NC(=O)CSc1cc(=O)n(C)c2ccc(Cl)cc12 (centres undefined),1.0,.

# Carrying on:
SMILES,BJeLR viab HTS,A1 inhib
COC(CC(c1c(O)cc2cc(C)oc(=O)c2c1O)c1c(O)cc2cc(C)oc(=O)c2c1O)C(=O)O (centres undefined),-3.7,-0.2
C=CCn1cnc2c(cnn2-c2ccc(F)cc2)c1=O,2.0,-0.1
C[C@@H]1CN([C@H](C)CO)C(=O)c2cccc(NC(=O)c3ccc(-c4nccs4)cc3)c2O[C@H]1CN(C)Cc1ccncc1,3.7,.
Cc1cc(C(=O)Nc2cccc3c2O[C@H](CN(C)Cc2ccc(C(F)(F)F)cc2)[C@H](C)CN([C@H](C)CO)C3=O)n(C)n1,2.2,.
Cc1ccc(CNC(=O)C2(S(=O)(=O)c3ccc(C)cc3)CC2)cc1,3.0,.
CCOC(=O)C(CC)n1cnc2c(oc3ccccc32)c1=O (centres undefined),1.7,1.2
C/C=C(/C)C(=O)O[C@H]1CC(C)(C)C[C@H]2C3=CCC4[C@@]5(C)CC[C@H](O[C@@H]6O[C@H](C(=O)O)[C@@H](O[C@@H]7O[C@H](CO)[C@H](O)[C@H](O)[C@H]7O[C@@H]7O[C@H](CO)[C@@H](O)[C@H](O)[C@H]7O)[C@H](O)[C@H]6O[C@@H]6O[C@@H](C)[C@H](O)[C@@H](O)[C@H]6O)C(C)(C)C5CC[C@@]4(C)[C@]3(C)C[C@@H](O)[C@@]12CO (some centres undefined),127*,-4.1
O=C(Nc1ccc2c(c1)C(=O)OC2)c1cc2ccccc2s1,11,0.4
O=C(CCCN1CCNCC1)c1ccc(F)cc1,0.1,0.4
Cc1csc(NC(=O)c2sc3nc4c(c(C(F)(F)F)c3c2N)CCC4)n1,3.9,-5.1
O=C(CNC(=O)C1CCCCC1)Nc1nc(CC23CC4CC(CC(C4)C2)C3)cs1,14,0.4
COC(Cn1c(SCc2ccc(Cl)cc2)nnc1-c1ccccc1)OC,1.9,0.2
